# CtBP-E1A inh: qHTS Assay for Inhibitors of the CtBP/E1A Interaction | 0.49% of 340,000 active | AID 651724, 2012 | CtBP / adenovirus E1A interaction (AlphaScreen) | activity change, % (no concentration beside the values) | AlphaScreen GST-E1A/His-CtBP binding, 1536-well; stronger effect = lower value; control for the full effect not named in the record; in the data active means activity change below about -65%; inconclusive means about -30% to -65%; inactive means above about -30%; note: % is set by controls: 0 for no effect and ±100 for the full control effect; compound concentration not given in the record
#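 Steps: dispense buffer (Tris pH 8.0, NaCl 300 mM, TCEP 1 mM, BSA, Tween 20); add 5X protein mix (GST-E1A, His-CtBP, 125 nM each); pin 23 nL compound; 2 h at 37 °C, dark; add 5X beads (50 ug/mL); 1 h; read.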
# Six1-Eya2 blk: qHTS Assay for Inhibitors of the Six1/Eya2 Interaction | Homeobox protein SIX1 (Homo sapiens) + Protein phosphatase EYA2 (Homo sapiens), … | AlphaScreen GST-Six1/His-Eya2 binding, biochemical; stronger effect = lower value; control for the full effect not named in the record | activity change, % (no concentration beside the values) | 0.56% of 360,000 active | AID 651725, 2012; in the data active = activity change below about -65%; inconclusive = about -30% to -65%; inactive = above about -30%; note: % is set by controls: 0 for no effect and ±100 for the full control effect; compound concentration not given in the record
# Target sequence (O00167 whole entry, looked up): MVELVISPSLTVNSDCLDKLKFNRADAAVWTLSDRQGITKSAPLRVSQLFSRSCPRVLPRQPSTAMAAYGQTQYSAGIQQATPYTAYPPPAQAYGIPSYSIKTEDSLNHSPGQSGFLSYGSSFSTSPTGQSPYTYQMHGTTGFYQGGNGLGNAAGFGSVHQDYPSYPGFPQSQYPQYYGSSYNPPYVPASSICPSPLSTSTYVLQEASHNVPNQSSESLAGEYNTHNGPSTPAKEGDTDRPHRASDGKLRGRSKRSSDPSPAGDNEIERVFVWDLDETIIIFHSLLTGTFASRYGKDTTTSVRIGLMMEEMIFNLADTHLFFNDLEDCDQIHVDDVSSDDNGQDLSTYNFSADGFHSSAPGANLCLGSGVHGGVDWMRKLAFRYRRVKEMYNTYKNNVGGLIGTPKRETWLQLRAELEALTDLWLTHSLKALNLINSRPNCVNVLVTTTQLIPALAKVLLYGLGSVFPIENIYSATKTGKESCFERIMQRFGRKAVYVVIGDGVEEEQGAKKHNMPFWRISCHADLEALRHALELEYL
# Target sequence (Q15475 whole entry, looked up): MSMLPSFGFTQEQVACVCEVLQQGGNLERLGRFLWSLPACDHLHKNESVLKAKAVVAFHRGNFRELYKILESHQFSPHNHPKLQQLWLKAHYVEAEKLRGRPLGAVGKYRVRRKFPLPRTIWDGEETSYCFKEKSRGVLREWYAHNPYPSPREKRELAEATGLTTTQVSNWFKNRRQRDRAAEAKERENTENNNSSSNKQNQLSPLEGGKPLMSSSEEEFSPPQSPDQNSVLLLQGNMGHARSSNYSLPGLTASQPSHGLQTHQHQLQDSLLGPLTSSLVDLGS
#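 GST-Six1 + His-Eya2 (5X stock: 250/500 nM); Tris pH 8.0, 300 mM NaCl, 0.05% BSA, 0.02% Tween 20; GSH donor/Ni acceptor beads; 1 h 37 °C dark; AlphaScreen readout.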
# gsp agonist: qHTS for Agonist of gsp, the Etiologic Mutation Responsible for Fibrous Dysplasia/McCune-Albright Syndrome: qHTS; Potency, µM (highest dose often 76.9 µM), without a hit: at the highest dose activation (cAMP increase), hits mostly activators; 0.13% of 340,000 active; AID 624287, 2012; gsp mutant cells, cAMP HTRF, 30 min; control for the full effect not named in the record; active = well fitted activation curve with a large enough effect; inconclusive = small, poorly fitted or top-dose-only effect, or another doubt; inactive = no such curve, though single readings can be large or run the other way; cell line not stated here;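 note: phosphodiesterase inhibitor Ro 20-1724 added with compounds to block cAMP breakdown; potency is the fitted concentration of half-maximal effect; nearly all actives have a fitted effect of over 60% in size; about a fifth of the inactives were tested at one dose only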
#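 Cells stably selected in G418 were plated at 2000/well, grown 16-24 hr, then given compounds in DMSO with the PDE inhibitor […] (300 uM solution added) for 30 min at 37C; cAMP was read by HTRF.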
# D2 PAM: Beta-Arrestin HTS for Positive Allosteric Modulators of the Human D2 Dopamine Receptor: Potentiators; D(2) dopamine receptor (Homo sapiens), P14416; DiscoveRx D2 beta-arrestin cells, luminescence, 90 min; 100% = 57 uM dopamine signal; potentiation, % (concentration not given with the values); 0.23% of 360,000 active; AID 624464, 2012; active = potentiation of 50% or more; inconclusive = 30% to 50%; inactive = 30% or less;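 note: compound concentration not given in the record; tested on top of an EC20 dose of dopamine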
#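 D2 cells co-treated with compound plus 50 nM dopamine (EC20) for 90 min at 37 deg C to detect potentiation. Beta-arrestin recruitment was read as enzyme-fragment luminescence after 1 h at ambient temperature. Full response was set by 57 uM dopamine.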
# gsp antagonist: qHTS for Antagonists of gsp, the Etiologic Mutation Responsible for Fibrous Dysplasia/McCune-Albright Syndrome: qHTS; gsp-mutant cells, cAMP HTRF, 30 min; control for the full effect not named in the record; Potency, µM (series often up to 76.9 µM), for the others: top-dose activity change, negative = inhibition, most hits filed as inhibitors; 0.4% of 340,000 active; active = falling curve of any shape with a large fitted effect; inconclusive = falling curve, mostly with a smaller effect; inactive = flat or rising curve; cell line not stated here;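 note: intracellular cAMP measured with PDE inhibitor Ro 20-1724 present during compound exposure; potency is the fitted concentration of half-maximal effect; % is set by controls: 0 for no effect and ±100 for the full control effect; nearly all actives have a fitted effect of over 65% in size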
#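 HTRF cAMP read-out (cAMP-d2 plus anti-cAMP antibody-K in lysis buffer, 30 min RT). Before lysis, cells are exposed to compounds with […] for 30 min at 37C in DPBS containing Ca/Mg, BSA and Tween 20.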
# D2 agonist: Beta-Arrestin HTS for Positive Allosteric Modulators of the Human D2 Dopamine Receptor: Agonists. D(2) dopamine receptor (Homo sapiens), P14416. DiscoveRx PathHunter D2 beta-arrestin, luminescence, 90 min; 100% = 57 uM dopamine signal. activation, % (test concentration not listed). 0.084% of 360,000 active. AID 624465, 2012; in the data active = activation above about 40%; inconclusive = about 15% to 40%; inactive = below about 15%; note: compound concentration not given in the record; the text of the record calls up to 30% inactive
#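 Agonist mode: compounds alone added to overnight-plated D2 PathHunter cells for 90 min at 37 C, with 57 uM final dopamine (EC100) defining full response. Beta-arrestin recruitment detected by chemiluminescent reagent, read after 1 h at ambient temperature.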
# * marks the source's active call; other numbers are inactive results; u = inconclusive; x = not tested or not shown; & = joins results of further samples; [ ] = another dose, or the depositor's remark.
Structure	CtBP-E1A inh	Six1-Eya2 blk	gsp agonist	D2 PAM	gsp antagonist	D2 agonist
CC/C=C(/NC(C)=O)c1ccccc1	6	-1	22%	-1	-4%	0.0
COc1ccc(C)cc1NS(=O)(=O)c1ccc2c(c1)CCN2C(C)=O	6	6	-6%	-5	-7%	5.7
Cc1c(Br)c([N+](=O)[O-])nn1CC(=O)Nc1cccc2nonc12	1	0	25%[15.4 µM]	-3	-32%	-0.3
O=C(CNC(=O)c1ccc(OC(F)F)cc1)Nc1cccc(S(=O)(=O)N2CCCC2)c1	2	-2	u	-27	-15%	-7.0
COCCNc1nc(N)c([N+](=O)[O-])c(Nc2ccc(F)cc2)n1	15	1	1%[15.4 µM]	-5	17%	-2.0
CCC(C)C(NC(=O)OC(C)(C)C)C(=O)NC(CC(C)C)C(N)=O (stereo not given)	0	17	-65%[inhibitor]	-6	-6%	-2.5
N#CC1=C(N)OC2=C(C(=O)CCC2)C1C1CC=CCC1 (stereo not given)	2	-7	14%	-8	-2%	-1.1
Cc1ccc2nc(NCC(=O)NN)nc(-c3ccccc3)c2c1	9	5	5%	-4	-7%	0.8
COc1ccc(CN(C)C(=O)c2ccccc2OCc2c(C)noc2C)c(OC)c1	7	-1	-33%[inhibitor]	2	-8%	6.3
O=[N+]([O-])c1ccccc1Sc1nccn1Cc1ccccc1	-6	-19	-14%	10	-12%	1.0
Cc1cc(NC(=O)C23CC4CC(C2)CC(n2cnc([N+](=O)[O-])n2)(C4)C3)no1	-3	3	0%	-5	0%	-1.7
O=C(CC1S/C(=N/N=C/c2cccs2)NC1=O)Nc1ccc(Cl)c(Cl)c1 (stereo not given)	-20	8	-52%[inhibitor]	0	0%	2.8
Cc1ccc(OCC(=O)Nc2c[nH]c(=O)[nH]c2=O)cc1C	-5	-10	11%	8	6%	4.3
COc1ccc(S(=O)(=O)N(C)c2ccc(C(=O)N3CCC(C(N)=O)CC3)cc2)cc1	12	3	u	12	-6%	-3.4
O=C(NC(=S)NCCN1CCOCC1)c1ccccc1Br	-2	-13	20%	-1	17%	-1.4

# By substructure: the entries above with an aryl methoxy group.
Structure	CtBP-E1A inh	Six1-Eya2 blk	gsp agonist	D2 PAM	gsp antagonist	D2 agonist
COc1ccc(C)cc1NS(=O)(=O)c1ccc2c(c1)CCN2C(C)=O	6	6	-6%	-5	-7%	5.7
COc1ccc(CN(C)C(=O)c2ccccc2OCc2c(C)noc2C)c(OC)c1	7	-1	-33%[inhibitor]	2	-8%	6.3
COc1ccc(S(=O)(=O)N(C)c2ccc(C(=O)N3CCC(C(N)=O)CC3)cc2)cc1	12	3	u	12	-6%	-3.4

# Profiles as entered above. Order of values: CtBP-E1A inh, Six1-Eya2 blk, gsp agonist, D2 PAM, gsp antagonist, D2 agonist
# Listed for O=C(CNC(=O)c1ccc(OC(F)F)cc1)Nc1cccc(S(=O)(=O)N2CCCC2)c1 → 2, -2, u, -27, -15%, -7.0
# Listed for COc1ccc(CN(C)C(=O)c2ccccc2OCc2c(C)noc2C)c(OC)c1 → 7, -1, -33%[inhibitor], 2, -8%, 6.3

# New compounds follow
Structure	CtBP-E1A inh	Six1-Eya2 blk	gsp agonist	D2 PAM	gsp antagonist	D2 agonist
CN1CC(=O)N(CC(=O)Nc2cccc3ccccc23)C1=O	3	1	-7%	-12	6%	1.3
COc1ccc(S(=O)(=O)N(C)C)cc1NC(=O)CSc1nc(N)cc(N)n1	1	-8	-7%[15.4 µM]	-6	19%	0.5
CC(C)C1N(C(N)=S)N=CC1(C)C (stereo not given)	-3	0	0%[15.4 µM]	-4	7%	-4.1
O=C(CSc1nc2c(sc3ccccc32)c(=O)n1CCc1ccccc1)NCc1ccco1	-3	3	-22%	2	-7%	0.7
CCN(C[C@H]1N[C@@](C)(C(=O)OC)[C@H]2C(=O)N(C)C(=O)[C@@H]12)C(=O)Nc1ccc(F)cc1	8	5	x	x	5%	0.6
COc1ccc(-n2cccc2C=O)cc1	24	2	7%	-2	13%	-1.7
NC(=O)CC(CC(=O)OCc1ccccc1)c1ccccc1 (stereo not given)	6	-1	12%	-6	19%	-3.8
Cc1cc(C)c(C)c(S(=O)(=O)N2CCN(C(=O)c3ccc4c(=O)n5c(nc4c3)CCC5)CC2)c1C	u	-24	u	3	-6%	-0.2
COc1ccc(Cc2noc(COc3ccc(Cl)cc3)n2)cc1	12	45	-12%	-7	-1%	0.6
O=C1c2ccccc2C(=O)N1CCc1nc(-c2ccncc2)no1	1	-2	-51%[inhibitor]	-12	-25%	-0.8
O=C(O)/C=C\C(=O)Nc1ccc(Oc2ccccc2)cc1	-1	-6	u	-6	-4%	-1.4
COc1ccccc1NC(=O)CSC1CC(=O)N(c2ccc3c(c2)OCO3)C1=O (stereo not given)	5	-3	11%	-8	-9%	-3.4
CSc1cccc(NS(=O)(=O)c2ccc(-c3coc(C)n3)cc2)c1	15	1	-2%	-1	-16%	0.8
CCC(CC)C(=O)NC12CC3CC(CC(C3)C1)C2	0	-1	-15%	-2	-2%	-2.4
CCOC(=O)/C(=N\Nc1cc(Cl)ccc1Cl)N1CC(C)OC(C)C1 (stereo not given)	x	-3	u	-7	2%	3.4
O=C1CN(C(=O)COC(=O)c2cccc(Br)c2)c2ccccc2N1	-19	-11	0%	-6	6%	-2.3
CCOC(=O)c1ccc(NC(=O)c2c(NC(=O)CCC(=O)O)sc3c2CCCCC3)cc1	-23	-12	14%	-9	u	0.1
COc1ccc(N2CCN(c3cc(C)c4cccc(C)c4n3)CC2)cc1	-9	-24	-12%[15.4 µM]	-3	1%	-6.1
CCOc1ccccc1NC(=O)CN1CCCCCC1	2	-15	11%[15.4 µM]	-13	13%	-3.0
COc1cccc(C2c3[nH]c4ccccc4c3C[C@H]3C(=O)N(c4ccccc4C(=O)N4CCCC4C(=O)O)C(=O)N23)c1 (stereo not given in full)	3	-1	x	-20	1%	-3.4
CCNc1cc2c(cc1O)CCC1C2CCC2(C)C(O)CCC12 (stereo not given)	-2	-14	u	25	21%	u
Cc1ccc(C2(CC(=O)Nc3nccs3)CCOC(C(C)C)C2)cc1 (stereo not given)	3	5	-24%	-13	15%	-4.1
COc1ccc(Cc2nc3ccccc3n2CC(=O)N/N=C/c2ccc(C)cc2O)cc1OC	5	-12	-14%	-6	9%	-2.6
CCN(CC)C(=O)CN1CCN(Cc2ccc3c(c2)OCO3)CC1	13	-4	-16%	-16	10%	1.1
CC(Oc1ccc(Cl)cc1Cl)C(=O)NCCCN(C)C (stereo not given)	8	5	-22%	-13	-1%	0.2
O=C(c1ccc(N2CCNCC2)cc1)c1cccnc1	-4	10	u	-7	4%	-0.2
Cc1cc(C(=O)C[N+]2(C)CCOCC2)c(C)n1-c1ccc(Br)cc1	-16	-15	-29%	-5	2%	-4.4
COc1ccc(NC(=O)CSc2n[nH]c(C)c2[N+](=O)[O-])cc1	0	21	4%	-6	4%	-0.7
CC1CC(C)(C)NC(=S)N1CCC(=O)N1CCc2ccccc21 (stereo not given)	3	-3	-5%[15.4 µM]	-8	10%	-2.9
O=C(NCc1ccc(Cl)cc1)C1CCN(S(=O)(=O)c2ccccc2)CC1	0	-12	7%[15.4 µM]	-8	-3%	-2.8

# 2 entries drawn at random from the list so far:
Structure	CtBP-E1A inh	Six1-Eya2 blk	gsp agonist	D2 PAM	gsp antagonist	D2 agonist
COc1ccc(N2CCN(c3cc(C)c4cccc(C)c4n3)CC2)cc1	-9	-24	-12%[15.4 µM]	-3	1%	-6.1
O=C(c1ccc(N2CCNCC2)cc1)c1cccnc1	-4	10	u	-7	4%	-0.2

# (list continues)
# The line under a structure holds: CtBP-E1A inh	Six1-Eya2 blk	gsp agonist	D2 PAM	gsp antagonist	D2 agonist
Cn1c(=O)c(=O)n(C)c2cc([N+](=O)[O-])c(N3CCOCC3)cc21
    1	-6	u	-6	3%	-3.0
COc1ccc(-c2csc(N(C)C(=O)c3cccs3)n2)cc1
    15	14	25%[15.4 µM]	-2	-33%	-4.6
CC1CCN(C(=O)COC(=O)c2c[nH]c3ccccc23)CC1
    7	4	21%[15.4 µM]	-69	-2%	-1.3
CN1C=CC=C/C1=C(\C#N)c1nc2ccccc2[nH]1
    0	0	-5%	-18	u	-5.8
Cc1cc(Br)cn2ccnc12
    9	4	-13%	5	8%	-3.9
O=C(Cn1c(=O)oc2ccccc21)Nc1ccc(Cl)cc1
    x	-5	-4%	-21	-4%	-2.8
Cc1ccc2nc(SCC(=O)Nc3oc(C)c4c(C)n[nH]c(=O)c34)[nH]c2c1
    -10	5	-5%	-3	1%	1.6
COc1ccc(S(=O)(=O)N2CCOC23CCN(S(C)(=O)=O)CC3)cc1
    6	5	-13%[15.4 µM]	-2	8%	-1.9
O=C(Cn1nnc(-c2ccc(F)cc2)n1)Nc1ccc2c(c1)OCCO2
    20	1	4%[15.4 µM]	-5	-10%	1.9
Cc1sc2nc(SCC(=O)O)[nH]c(=O)c2c1C
    9	-5	u	-9	3%	-3.1
O=C(C1=C[C@H](c2ccc(Br)cc2)C[C@H](OCCCCO)O1)N1CCOCC1
    0	6	x	-3	-3%	-4.1
C#CCOCCOCCOCCNc1nc(N2CCN(C(=O)[C@H](CCC(=O)O)n3cc(C(N)Cc4ccc(O)cc4)nn3)CC2)nc(N2CCN(C(=O)[C@H](CCC(=O)O)n3cc(C(N)CC(C)C)nn3)CC2)n1 (stereo not given in full)
    -16	-26	u	-11	9%	-3.9
NC(=O)N1CCC2(CC1)NC(=O)N(c1ccccc1)N2
    -10	18	4%[15.4 µM]	-11	x	0.2
CCOC(=O)C1=C(C)NC(SCC(N)=O)=C(C#N)C1c1ccncc1 (stereo not given)
    0&-2	29&-2	-11%&-39%	-7&-25	-12%&-1%	-1.0&-2.3

# Random draw from the library; about 1.4% have a hit in one of these screens.
